Compound activity from PubChem.
TRPV1 potentiator: enhances activation of the human vanilloid receptor TRPV1. 0.02% of 320,000 active. Q8NER1. potentiation, % at 8.33 µM. TRPV1-expressing cells, Fluo-8 calcium influx, capsaicin EC20 potentiation; host cell line not named in the record; control for the full effect not named in the record; active means potentiation above 80%; inconclusive means 30% to 80%; inactive means below 30%; note: 0% is about no effect
Target sequence (Q8NER1 whole entry, looked up): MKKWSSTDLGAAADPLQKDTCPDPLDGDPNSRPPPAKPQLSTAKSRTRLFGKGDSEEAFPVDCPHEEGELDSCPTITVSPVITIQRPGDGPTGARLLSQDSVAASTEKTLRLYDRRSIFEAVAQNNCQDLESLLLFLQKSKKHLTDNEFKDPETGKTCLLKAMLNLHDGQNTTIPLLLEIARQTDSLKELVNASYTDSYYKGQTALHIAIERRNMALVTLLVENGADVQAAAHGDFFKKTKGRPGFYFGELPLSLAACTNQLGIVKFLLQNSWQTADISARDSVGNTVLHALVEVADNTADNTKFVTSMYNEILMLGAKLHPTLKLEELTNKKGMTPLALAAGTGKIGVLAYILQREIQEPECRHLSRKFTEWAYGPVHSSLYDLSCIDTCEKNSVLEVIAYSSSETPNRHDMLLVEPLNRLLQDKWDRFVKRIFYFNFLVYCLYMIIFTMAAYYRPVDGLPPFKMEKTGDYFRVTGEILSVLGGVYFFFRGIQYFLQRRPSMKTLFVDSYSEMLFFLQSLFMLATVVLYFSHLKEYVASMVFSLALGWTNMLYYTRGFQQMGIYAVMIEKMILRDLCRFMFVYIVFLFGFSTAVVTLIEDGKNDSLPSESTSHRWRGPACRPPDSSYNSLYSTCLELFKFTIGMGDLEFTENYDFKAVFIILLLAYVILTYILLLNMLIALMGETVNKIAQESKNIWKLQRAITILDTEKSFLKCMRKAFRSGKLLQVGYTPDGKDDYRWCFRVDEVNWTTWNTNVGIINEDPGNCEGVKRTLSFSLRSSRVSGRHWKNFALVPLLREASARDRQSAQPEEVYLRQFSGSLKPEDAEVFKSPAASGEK
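Cells expressing TRPV1 were dye-loaded with Fluo-8 and read kinetically: 10 s baseline, 3 min after compound (agonist portion), then 2 min after EC20 capsaicin (allosteric enhancer portion). Calcium-bound dye fluorescence at 480/520 nm.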
D2 potentiator: human D2 receptor positive allosteric modulation | DiscoveRx D2 beta-arrestin cells, luminescence, 90 min; 100% = 57 uM dopamine signal | AID 624464 | P14416 | potentiation, % (concentration not given with the values) | 0.23% of 360,000 active; active = potentiation of 50% or more; inconclusive = 30% to 50%; inactive = 30% or less;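 note: compound concentration not given in the record; tested on top of an EC20 dose of dopamine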
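D2 cells co-treated with compound plus 50 nM dopamine (EC20) for 90 min at 37 deg C to detect potentiation. Beta-arrestin recruitment was read as enzyme-fragment luminescence after 1 h at ambient temperature. Full response was set by 57 uM dopamine.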
CtBP-E1A inh: blocks the CtBP interaction with E1A; AlphaScreen GST-E1A/His-CtBP binding, 1536-well; hits give low values; control for the full effect not named in the record; 0.49% of 340,000 active; activity change, % (concentration not given with the values); AID 651724; in the data active means activity change below about -65%; inconclusive means about -30% to -65%; inactive means above about -30%; note: % is set by controls: 0 for no effect and ±100 for the full control effect
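Steps: dispense buffer (Tris pH 8.0, NaCl 300 mM, TCEP 1 mM, BSA, Tween 20); add 5X protein mix (GST-E1A, His-CtBP, 125 nM each); pin 23 nL compound; 2 h at 37 °C, dark; add 5X beads (50 ug/mL); 1 h; read.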
TRPML1 ag: human mucolipin-1 channel agonism | TRPML1-expressing cells, Ca2+ dye fluorescence, FDSS; host cell line not named in the record; reference of the full effect not given here | activation, % (test concentration not listed) | 0.12% of 410,000 active; in the data active = activation above about 50%; inconclusive = about 30% to 50%; inactive = below about 30%; note: 0% is about no effect; the text of the record puts the active cut at 80%
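Tetracycline-induced TRPML1-DL cells are seeded and incubated overnight before loading with a no-wash Ca2+ dye and quencher. Agonist activity is taken from the 110 s fluorescence read following compound pin-transfer on an FDSS, before EC80 54-4 challenge.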
Six1-Eya2 inh: inhibitors of human Six1/Eya2 interaction. 0.56% of 360,000 active. AlphaScreen GST-Six1/His-Eya2 binding, biochemical; hits give low values; control for the full effect not named in the record. Q15475+O00167. activity change, % (no concentration beside the values); in the data active = activity change below about -65%; inconclusive = about -30% to -65%; inactive = above about -30%; note: % is set by controls: 0 for no effect and ±100 for the full control effect; compound concentration not given in the record
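Compounds are tested against tagged Six1 and Eya2 proteins bridged by glutathione donor and nickel acceptor beads; after a one-hour incubation at 37 °C without light, AlphaScreen emission is recorded.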
TRPML1 blocker: human mucolipin-1 channel inhibition | Q9GZU1 | TRPML1-inducible cells, Ca2+ dye fluorescence, FDSS; hits give low values; inhibition of EC80 agonist-evoked calcium signal | activity change, negative = inhibition, % (concentration not given with the values) | 0.02% of 390,000 active | AID 624415; in the data active means activity change below about -50%; inconclusive means about -30% to -50%; inactive means above about -30%;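 note: stimulus is agonist 54-4 at its EC80 concentration; % is set by controls: 0 for no effect and ±100 for the full control effect; compound concentration not given in the record; the text of the record puts the active cut at -80%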
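TRPML1-DL cells, Tet-induced overnight (~16 h, 37 °C) at 1,500 cells/well, were loaded with Ca8 no-wash dye plus quencher for 45-90 min at room temperature. Compounds were pinned during FDSS kinetic reading; agonist 54-4 at EC80 (4 uM final) then added.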
* marks the source's active call; other numbers are inactive results; ? = inconclusive; . = no result given; & = joins results of further samples.

SMILES	TRPV1 potentiator	D2 potentiator	CtBP-E1A inh	TRPML1 ag	Six1-Eya2 inh	TRPML1 blocker
Cc1ccc(S(=O)(=O)N(CC(O)CN2C(=O)NC(C)(C)C2=O)c2cccc([N+](=O)[O-])c2)cc1 (stereo unspecified)	9	-8	25	-0.9	-1	9
COc1ccc(Oc2ncnc3c2oc2ccc(Br)cc23)cc1	2	-1	5	-0.6	6	6
CCOCc1c(C(=O)Nc2ccc(OC)nc2)oc2ccccc12	9	-3	5	1.0	7	37
CCc1cc2c(cc3c(=O)n(CC(=O)NCCCN4CC(C)CC(C)C4)ncn32)s1 (stereo unspecified)	14	-17	1	-0.2	6	4
CSc1ccc(-c2nc(CN(C)C3CCOC3)c(C)o2)cc1 (stereo unspecified)	0	-13	-9	0.1	-4	9
CCCCN(C)CCCNC(=O)CCn1nc(-c2ccccc2)ccc1=O	-2	9	-1	0.8	5	-17
Cc1ccc(S(=O)(=O)N2CCN(C(=O)C3CCN(c4ncnc5sc(C)c(C)c45)CC3)CC2)c(C)c1	.	-3	.	-0.7	3	24
COc1ccc(/C=N/NC(=O)c2nc(-c3ccccc3)n(-c3ccccc3)n2)cc1OC	-9	-7	?	0.1	?	-2
Cc1ccc2c(c1)C(=O)C(=O)N2CC(=O)OC(C)C	13	-33	2	0.4	0	-8
COc1cc(CNCCc2c[nH]c3ccccc23)ccc1OCc1ccc(F)cc1	-18	-29	5	0.0	?	-5
CCOC(=O)c1c(C)oc2c1c(CN1CCN(CCO)CC1)c(O)c1ccccc12	-11	22	-14	3.5	-9	-1
O=c1[nH]c2ccccc2n2c(=S)[nH]nc12	15	-12	4	-0.9	-16	-8
O=C(/C=C/c1ccccc1)Nc1sc2c(c1C(=O)O)CCC2	6	-1	1	0.6	14	-10
CCN(CC)CC(C)CNC(=O)CN1C(=O)CSc2ccc(S(=O)(=O)N3CCOCC3)cc21 (stereo unspecified)	5	-2	6	-0.1&0.5	11	-17&-11
Cc1c(N)cc(C(=O)N2CCOCC2)cc1[N+](=O)[O-]	6	-9	25	0.1	18	-10

Some entries already given, showing only TRPML1 ag and Six1-Eya2 inh:
canonical_smiles | TRPML1 ag | Six1-Eya2 inh
CCc1cc2c(cc3c(=O)n(CC(=O)NCCCN4CC(C)CC(C)C4)ncn32)s1 (stereo unspecified) | -0.2 | 6
COc1cc(CNCCc2c[nH]c3ccccc23)ccc1OCc1ccc(F)cc1 | 0.0 | ?
CCCCN(C)CCCNC(=O)CCn1nc(-c2ccccc2)ccc1=O | 0.8 | 5

Some of the entries above, reformatted:
Values run as follows: TRPV1 potentiator, D2 potentiator, CtBP-E1A inh, TRPML1 ag, Six1-Eya2 inh, TRPML1 blocker
- Cc1ccc(S(=O)(=O)N(CC(O)CN2C(=O)NC(C)(C)C2=O)c2cccc([N+](=O)[O-])c2)cc1 (stereo unspecified)
    9, -8, 25, -0.9, -1, 9
- COc1ccc(Oc2ncnc3c2oc2ccc(Br)cc23)cc1
    2, -1, 5, -0.6, 6, 6
- CCOCc1c(C(=O)Nc2ccc(OC)nc2)oc2ccccc12
    9, -3, 5, 1.0, 7, 37
- CCc1cc2c(cc3c(=O)n(CC(=O)NCCCN4CC(C)CC(C)C4)ncn32)s1 (stereo unspecified)
    14, -17, 1, -0.2, 6, 4
- CSc1ccc(-c2nc(CN(C)C3CCOC3)c(C)o2)cc1 (stereo unspecified)
    0, -13, -9, 0.1, -4, 9
- CCCCN(C)CCCNC(=O)CCn1nc(-c2ccccc2)ccc1=O
    -2, 9, -1, 0.8, 5, -17
- Cc1ccc(S(=O)(=O)N2CCN(C(=O)C3CCN(c4ncnc5sc(C)c(C)c45)CC3)CC2)c(C)c1
    ., -3, ., -0.7, 3, 24
- COc1ccc(/C=N/NC(=O)c2nc(-c3ccccc3)n(-c3ccccc3)n2)cc1OC
    -9, -7, ?, 0.1, ?, -2
- Cc1ccc2c(c1)C(=O)C(=O)N2CC(=O)OC(C)C
    13, -33, 2, 0.4, 0, -8
- COc1cc(CNCCc2c[nH]c3ccccc23)ccc1OCc1ccc(F)cc1
    -18, -29, 5, 0.0, ?, -5
- CCOC(=O)c1c(C)oc2c1c(CN1CCN(CCO)CC1)c(O)c1ccccc12
    -11, 22, -14, 3.5, -9, -1
- O=c1[nH]c2ccccc2n2c(=S)[nH]nc12
    15, -12, 4, -0.9, -16, -8
- O=C(/C=C/c1ccccc1)Nc1sc2c(c1C(=O)O)CCC2
    6, -1, 1, 0.6, 14, -10
- CCN(CC)CC(C)CNC(=O)CN1C(=O)CSc2ccc(S(=O)(=O)N3CCOCC3)cc21 (stereo unspecified)
    5, -2, 6, -0.1&0.5, 11, -17&-11

Further entries follow.
SMILES	TRPV1 potentiator	D2 potentiator	CtBP-E1A inh	TRPML1 ag	Six1-Eya2 inh	TRPML1 blocker
O=C1C2C3C=CC(C2C(=O)N1CCO)C1C(=O)N(CCO)C(=O)C31 (stereo unspecified)	6	-10	.	0.5	8	22
Cc1cccc(/C=C/C(=O)c2ccc(NC3=NCCCS3)cc2)c1	16	-16	.	6.0	9	3
CC(=O)C1=C(O)C(=O)N(c2nccs2)C1c1ccccc1F (stereo unspecified)	-9	-7	0	0.0	-4	48
O=C(COC(=O)c1cc[n+]([O-])cc1)Nc1ccc(Br)cc1	2	-2	1	0.4	1	-12
CC(=O)CSc1cc(-c2ccccc2)nc2ncnn12	0	-11	-3	0.8	25	5
CN(C)C(=O)c1cc(C(=O)c2ccccc2F)c[nH]1	9	-8	.	1.2	12	-6
O=C(CCNC(=O)c1ccc(Cl)cc1)Nc1ccc(S(=O)(=O)N2CCCCC2)cc1	-18	-4	6	0.9	-5	2
CCN1C(=O)N(CC)c2cccc3cccc1c23	-16	-8	.	-0.3	-1	-8
COc1ccc(N2C(=O)/C(=C\c3ccco3)N=C2SCC(N)=O)cc1Cl	0	-2	-9	0.2	-19	7
CCc1ccc(NC(=O)CSc2nc(=O)n(CCCN(C)C)c3c2CCC3)cc1	5	-19	-2	-0.9	2	3
N#Cc1c(N)n(Cc2ccccc2)c(=O)c2cc([N+](=O)[O-])ccc12	7	-4	5	0.2	0	-7
S=C(Nc1ccc(Cl)cc1)c1nc2ccccc2[nH]1	-9	-1	?	4.9	-73*	-10
S=c1[nH]ncn1/N=C/c1ccc(Br)cc1	2	3	-2	-0.5	5	-4
COc1cc(OC)cc(C(=O)NCC(=O)OCC(=O)/C=C2/N(C)c3ccccc3C2(C)C)c1	0	-5	-1	3.1	-3	7
Cc1ccc(-n2nc(-c3cccs3)cc2C(=O)NCC2CCCO2)c(C)c1 (stereo unspecified)	8	-5	-8	1.9	-4	14
Cn1nccc1C(=O)OCC(=O)Nc1nc(-c2ccccc2)cs1	-5	-6	-1	-0.4	-8	-8
COc1ccc(NC(=O)CSc2nncn2C)cc1	0	-4	-2	-1.1	7	8
COCC(C)NC(=O)c1cc2cc(OC)ccc2[nH]1 (stereo unspecified)	.	-3	-4	-0.4	3	-5
N#C/C(=C\c1ccc(F)cc1F)S(=O)(=O)c1ccccn1	-2	-2	4	-0.1	-5	-1
CC(Nc1cccc2ccccc12)C(=O)N/N=C/c1ccccn1 (stereo unspecified)	1	14	-1	0.8	-15	-4
Cc1ccc(N2CC(C(=O)NCCN3CCOCC3)CC2=O)cc1C (stereo unspecified)	13	-2	7	0.5	0	41
CNc1ncc(C(=O)c2ccc(-c3ccccc3)cc2)s1	17	-19	.	-0.2	3	4
CCC(=O)Nc1ccc2c(c1)C(=O)N(C)C2=O	-1	3	-2	-0.4	6	-3
COC(=O)C1=C(C)N(CC2CC2)C(=NCc2cccc(C(F)(F)F)c2)N[C@H]1c1ccccc1	-3	-11	-4	-0.4	-9	40
COc1ccc(NC(=O)CN(C)CC(=O)Nc2cccc(F)c2)cc1Cl	-15	-8	-6	0.2	-1	-18
CCc1cc(CC)c(/C=N/NC(N)=O)c(CC)c1	1	-18	-15	3.2	-4	-9
CC(=O)c1ccc(OCCOc2ccc(C#N)cc2)cc1	-1	0	10	.	4	.
CCN(CC)c1ccc(NC(=O)CCc2nnc3ccc(N4CCCC4)nn23)c(C)c1	-5	2	-2	2.8	-9	-11
CC(C)C[C@@H]1COc2cccc(N3CCC[C@H]3CO)c2S(=O)(=O)N1	.	.	-8	0.5	16	.
O=C1N=C2SCCN2/C1=C\c1c(Cl)cccc1Cl	-28	-2	5	0.2	3	15
Cn1ncc(N=Cc2ccc([N+](=O)[O-])cc2)c1C(=O)Nc1ccccc1	-5	-2	-2	1.5	-2	0
NC(=O)c1ccccc1NC(=O)CC12CC3CC(CC(C3)C1)C2	3	-1	1	0.7	4	-2
Cc1ccc(C(=O)N(CC(=O)Nc2ccc(Cl)c(Cl)c2)Cc2ccco2)cc1	3	-20	-2	0.8	-1	33
CC(OCC(O)CN(C)CCOc1ccccc1)c1ccc(Cl)cc1 (stereo unspecified)	4	17	-3	-1.1	-1	-3
CN(C)c1nc(NCc2ccccc2)nc(Oc2ccc(=O)[nH]n2)n1	4	9	4	-0.7	0	0
O=C(O)c1cc2c(cn1)[nH]c1ccccc12	26	2	-93*	0.8	-79*	-6
CC1(C)CC2CC(C)(CN2S(=O)(=O)c2cccc(N)c2)C1 (stereo unspecified)	-16	0	2	-1.3	-3	3
CCOC(=O)c1nc(Nc2ccc(C(=O)OC)cc2)c2ccccc2n1	.	-17	-87*	4.1&-1.0	-85*	-4&-2
Brc1ccc(-c2ncc3ccccn23)cc1	-5	-12	.	-0.3	3	-14
CN(CCc1ccccn1)C(=O)c1nn2c(C(F)(F)F)cc(-c3ccco3)nc2c1Cl	?	-3	-30	-0.3	-8	5
Cc1cc(F)ccc1-c1cc(C(=O)Nc2ccccc2)[nH]n1	.	-12	3	0.1	3	.
COc1ccc(COc2cc(-c3cccc(OC)c3)nc3ccc(N)cc23)cc1	-3	4	.	0.3	-8	-15
O=C(CN(C(=O)CNC(=O)c1cccs1)c1ccccc1F)NC1CCCC1	8	3	-4	0.3	-10	3
Clc1ccc(CN2CCN(/N=C/c3ccco3)CC2)cc1	12	-11	-8	-1.2	-16	-13
CCC(C)C(NC(=O)c1ccc(Cl)cc1)C(=O)Nc1cccnc1 (stereo unspecified)	-5	-16	0	1.0	-7	-3
CCCCn1nc2cc(C(=O)NCc3ccc4c(c3)OCO4)ccc2c1OCC	0	-3	2	1.5	10	4
COc1cccc(NC(=O)CSc2nnc(C3CCCCC3)n2N)c1	.	-5	.	-1.7	1	4
CC(C)N(CC#CCC(O)(c1ccccc1)c1ccccc1)CCO	-8	-9	.	-0.1	12	-1
Cc1cccc(C(=O)N2CCC(=O)N(C(COCc3cccc(C(F)(F)F)c3)Cc3ccccc3)CC2)c1 (stereo unspecified)	-6	-33	1	1.5	3	76
CC(C)(C)c1ccc(NS(=O)(=O)c2ccc(N)cc2)cc1	12	0	0	1.8	0	10
